# CHT PAM: human CHT allosteric activation | CHT-expressing cells, membrane potential dye, choline EC20; active compounds read high; LV-AA mutant CHT in HEK293 cells | B-score at 10 µM | 310,000 compounds, 0.49% hits;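 active = initial fluorescence not abnormally high and integrated response B-score, plate-corrected, over 3 SD above library mean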
# Target sequence (Q9GZV3 whole entry, looked up): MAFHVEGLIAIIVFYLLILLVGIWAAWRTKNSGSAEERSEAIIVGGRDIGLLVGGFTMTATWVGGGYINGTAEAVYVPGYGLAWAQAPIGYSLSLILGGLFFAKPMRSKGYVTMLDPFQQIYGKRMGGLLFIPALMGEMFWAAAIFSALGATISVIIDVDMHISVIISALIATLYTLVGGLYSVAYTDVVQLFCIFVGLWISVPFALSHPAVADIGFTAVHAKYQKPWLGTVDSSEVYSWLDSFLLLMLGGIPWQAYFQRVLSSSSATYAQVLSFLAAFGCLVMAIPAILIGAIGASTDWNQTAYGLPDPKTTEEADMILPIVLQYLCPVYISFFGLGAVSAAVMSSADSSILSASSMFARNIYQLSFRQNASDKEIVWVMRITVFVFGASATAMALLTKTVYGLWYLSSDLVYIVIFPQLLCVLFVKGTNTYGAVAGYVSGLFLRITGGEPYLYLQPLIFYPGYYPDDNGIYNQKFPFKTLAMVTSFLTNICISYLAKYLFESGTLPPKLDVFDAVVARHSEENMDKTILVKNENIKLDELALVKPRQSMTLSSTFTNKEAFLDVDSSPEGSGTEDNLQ
# Calls only; i = inactive.
SMILES,CHT PAM
CCOC(=O)Cn1c(=NC(=O)CC)sc2c(C)cc(C)cc21,i
NNC(=O)c1nnn(-c2nonc2N)c1-c1cccs1,i
CCOC(=O)CON1C(=O)C(=O)N(OCC(=O)OCC)[C@H]2CCCC[C@H]21,i
COc1ccccc1CNC(=O)c1ccc(CNc2c(N3CCCC3)c(=O)c2=O)cc1,i
COc1ccc(-n2c(SCC(=O)/C(C#N)=C(\C)N)nc3ccccc3c2=O)cc1OC,i
CC1CCCN(S(=O)(=O)c2ccc(NC(=O)CNC3CCCC3)cc2)C1 (centres undefined),i
CCC(C(=O)Nc1c(C)cc(C)cc1C)N1CCCCCC1 (centres undefined),i
COC(=O)c1cc(-c2ccc(Br)cc2)c2c(=O)n(C)c(=O)n(C)c2n1,i
COc1ccc(-c2nnc(SCC(=O)NCCC(C)C)nc2-c2ccc(OC)c(OC)c2)cc1OC,i
CC(=O)c1cccc(NC(=O)CCc2nnc3ccc(N4CCOCC4)nn23)c1,i
Nc1nonc1C(=O)NCCNC(=O)c1ccc(Cl)cc1,i
CCOC(=O)N1CCC(NC(=O)c2cc(C(=O)NCc3ccc(F)cc3)ccc2CO)CC1,i
Cc1nn(S(=O)(=O)c2ccc(C(C)C)cc2)c(C)c1S(=O)(=O)N1CCOCC1,i
CN(C(=O)C1CCOC1)c1nnc(-c2cccnc2)s1 (centres undefined),i
COc1ccc(OC)c(-c2csc(N(C)C(=O)Cc3ccccc3)n2)c1,i
O=C(NCCN1C(=O)S/C(=C/c2ccccc2)C1=O)C1CCCN1C(=O)c1cccs1 (centres undefined),i
O=C(c1ccc2c(c1)C(=O)N(c1ccc(Cl)cc1)C2=O)N1CCN(c2ccccn2)CC1,i
COc1ccc(CNC(=O)c2ccc(NS(=O)(=O)c3c(C)noc3C)cc2)cc1,i
Cc1ccc(OCC(=O)N/N=C/c2ccc([N+](=O)[O-])o2)cc1,i
Cc1sc2nc(CN3CCOCC3)nc(NS(=O)(=O)c3ccc4c(c3)OCCO4)c2c1C,i
CCOC(=O)N1CCC(NC(=O)c2cc3c(-c4cccc(OC)c4)nn(C)c3s2)CC1,i
CC1CSc2nnc(CCc3ccccc3)n21 (centres undefined),i
C/C(=N\NC(=O)c1ccc(N/N=C(\C)c2ccncc2)cc1)c1ccncc1,i
NNC(=O)C(=O)/C=C1\NC2(CCCC2)Cc2ccccc21,i
Cc1ccc(NC(=S)NCCc2ccc(S(N)(=O)=O)cc2)cc1C,i

# Among those listed so far, 4 have a halogen.
SMILES,CHT PAM
COC(=O)c1cc(-c2ccc(Br)cc2)c2c(=O)n(C)c(=O)n(C)c2n1,i
Nc1nonc1C(=O)NCCNC(=O)c1ccc(Cl)cc1,i
CCOC(=O)N1CCC(NC(=O)c2cc(C(=O)NCc3ccc(F)cc3)ccc2CO)CC1,i
O=C(c1ccc2c(c1)C(=O)N(c1ccc(Cl)cc1)C2=O)N1CCN(c2ccccn2)CC1,i

# Later entries.
SMILES,CHT PAM
CCC(C)[C@H](NC(=O)N1CC(=O)Nc2ccccc21)C(=O)N[C@@H](Cc1c[nH]c2ccccc12)C(=O)O (some centres undefined),i
COc1cccc(COC(=O)c2nn(-c3ccccc3)nc2N)c1,i
O=C(COc1ccccc1Cl)Nc1ccc(N2CCN(C(=O)c3ccccc3)CC2)cc1,i
CN(Cc1cccc2ncccc12)C(=O)CC1C(=O)NCCN1Cc1ccc(F)cc1 (centres undefined),i
O=C(C1CC2CCC1C2)N1CCN(Cc2ccc3c(c2)OCO3)CC1 (centres undefined),i
COc1ccc(CNC(=O)C(C)N(Cc2ccco2)C(=O)c2snc(C(N)=O)c2N)cc1 (centres undefined),i
COc1cccc(NC(=O)CC2S/C(=N\S(=O)(=O)c3ccccc3)N(c3ccccc3)C2=O)c1 (centres undefined),i
CSc1nc2ccc(S(=O)(=O)N3CCc4ccccc43)cc2s1,i
COc1cccc(N2CCN(C(=O)C3CCN(S(=O)(=O)c4cccs4)CC3)CC2)c1,i
CCOc1cc(N2CCOCC2)c(OCC)cc1NC(=O)COC(=O)c1cccc2ccccc12,i
CC1(C)C(c2ccccc2)=[N+]([O-])C2(CCCCC2=O)N1O (centres undefined),i
O=C(NCc1cccnc1)C1CC(c2cccc(Br)c2)=NO1 (centres undefined),i
COc1cc2c(C#N)c(N3CCc4ccccc4C3)nc(N)c2c(N)n1,i
Cc1ccnc(NC(=O)CCC2COc3ccccc3O2)c1 (centres undefined),i
Cc1c(Cc2ccccc2)c(NCCCO)n2c(nc3ccccc32)c1C#N,i
COc1cc(C(=O)NCC(=O)NCCN2C(=O)S/C(=C\c3ccccc3Cl)C2=O)cc(OC)c1OC,i
CC(CN1CCOCC1)OC(=O)C(C)(c1ccccc1)c1ccccc1 (centres undefined),i
O=C(O)c1cc(-c2ccco2)nc2ccccc12,i
COc1c(Br)cc2c(C)c(C(=O)N3CCOCC3)oc2c1Br,i
CNC(=S)N(C)c1ccccc1,i
COc1cc2[nH]c(=S)n(Cc3ccc(C)cc3)c(=O)c2cc1OC,i
CCOC(=O)C(NC(C)=O)C(OC(C)=O)c1cccc(N(CCO)CCO)c1 (centres undefined),i
CCN(CC)C(=O)CSc1nnc(-c2ccc(F)cc2)n1N,i
CC(=O)Nc1c(C(=O)N2CCCCCC2)cnn1-c1ccccc1,i
CCc1ccc(N(CC(=O)NC2CC2)S(=O)(=O)c2ccc(C)cc2)cc1,i
# (cont.)
SMILES,CHT PAM
Cc1ccc(-c2ccc(CCC(=O)O)n2Cc2ccco2)cc1,i
c1coc(CNc2c3c(nc4ncnn24)CCCC3)c1,i
O=C(CC1C(=O)NCCN1CC1CCCCC1)NCc1cc(F)ccc1F (centres undefined),i
O=C(c1ccccc1)c1c(O)nc(-c2ccccc2)n(-c2ccccc2)c1=O,i
O=C(Nc1nc(-c2ccncc2)cs1)C1c2ccccc2Oc2ccccc21,i
O=C(CNC(=O)c1cncc(Br)c1)Nc1ccc(F)c(F)c1F,i
COc1ccc(NC2CCCN(C(=O)CCOc3ccccc3)C2)cc1 (centres undefined),i
COc1cc(/C=C/C(C)=O)cc(OC)c1OC,i
COc1ccc(/C=N/NC(=O)c2cc(C)n(-c3ccccc3)c2C)cc1OC,i
COc1ccc(C(=O)Nc2cccc(-c3cnc4ccccc4n3)c2)cc1,i
COCCNC(=O)c1ccc2c(c1)nc(C)n2-c1cccc(F)c1,i
O=C(NCCc1ccccc1)c1ccc2[nH]c(=O)c(=O)[nH]c2c1,i
CC1CCN(C(=O)CSc2nnc(-c3cccnc3)n2C2CCCCC2)CC1,i
O=C(/C=C/c1ccco1)N/C(=C\c1ccccc1)C(=O)NCCc1nc2ccccc2[nH]1,i
Cc1cc(NC(=O)CSCC(=O)N(c2ccc(F)cc2)C(C(=O)NC2CCCCC2)c2ccc(O)c(O)c2)no1 (centres undefined),i
CCOc1ccccc1C(=O)Nc1cnn(Cc2ccc(F)cc2)c1,i
Cc1cc(C)nc(SCc2nnc(SCC(=O)N3CCCc4ccccc43)n2C)n1,i
COc1ccc(CCNC(=O)c2nnn(CC(=O)Nc3ccc(C)cc3C)c2N)cc1OC,i
Cc1cnc([N+](=O)[O-])n1CCOC(=O)NC(=O)c1ccc(C(F)(F)F)cc1,i
CCCC(=O)Nc1nc2ccc(NC(=O)c3ccc(Br)o3)cc2s1,i
COC(=O)C(C)N(C(=O)c1cccc2ccccc12)c1c(C)cccc1C (centres undefined),i
COc1ccc(Cl)cc1N/C(N)=N/c1nc(C)cc(=O)[nH]1,i
COc1ccc(S(=O)(=O)N2CCN(Cc3cccc(OC)c3)CC2)cc1,i
COc1ccccc1N1C(=O)c2ccc(C(=O)Nc3ccc(F)cc3)cc2C1=O,i
O=C(COc1ccc(Cl)cc1)NCCSc1ccccc1,i

# Rewritten with each value named: part of the list above
O=C(/C=C/c1ccco1)N/C(=C\c1ccccc1)C(=O)NCCc1nc2ccccc2[nH]1
  CHT PAM = i

COc1cc(/C=C/C(C)=O)cc(OC)c1OC
  CHT PAM = i

CCCC(=O)Nc1nc2ccc(NC(=O)c3ccc(Br)o3)cc2s1
  CHT PAM = i

O=C(CC1C(=O)NCCN1CC1CCCCC1)NCc1cc(F)ccc1F (centres undefined)
  CHT PAM = i

# Next structures:
SMILES,CHT PAM
CCOC(=O)N1CCN(C(=S)NC(=O)c2cc(Br)ccc2Cl)CC1,i
O=C(Nc1ccc(F)cc1)c1ccc(C(=O)N2CCOCC2)cc1,i
COc1ccc(C(=O)OCC(=O)Nc2nc3c(F)c(F)c(F)cc3s2)cc1OC,i
CCOC(=O)Cn1c(=O)oc2cc(S(=O)(=O)N3CCc4ccccc43)ccc21,i
Nc1nc2c([N+](=O)[O-])cccc2s1,i
CCCCNC(=O)CSc1nc2ccccc2c(=O)n1CC1COc2ccccc2O1 (centres undefined),i
COC(=O)c1ccccc1NC(=O)c1ccco1,i
CC(=O)Nc1cc(C)nn1-c1nc(C)cc(C)n1,i
CCOc1cc(/C=N\NC(N)=O)cc(Br)c1OC(C)C,i
CCOC(=O)C1=C(CC)OC(N)=C(C#N)C1c1ccc(OC)cc1OC (centres undefined),i
O=C(O)c1cc(-c2ccccn2)n[nH]1,i
Brc1ccc(C2CC(c3ccccc3)=Nc3ccccc3N2)cc1 (centres undefined),i
Cc1cc(OC(C)C(=O)Nc2ccc(S(=O)(=O)Nc3onc(C)c3C)cc2)cc(C)c1Cl (centres undefined),i
O=C(NC1CC2CCC(C1)N2C(=O)NC1CCCCC1)NC12CC3CC(CC(C3)C1)C2 (centres undefined),i
CCCNC(=O)CN(C)C(=O)c1n[nH]c2ccccc12,i
Cn1ncc2c(Nc3cc(Cl)cc(Cl)c3)ncnc21,i
CC(=O)Nc1ccccc1NC(=O)c1ccccc1,i
Cc1noc(C)c1COC(=O)c1ccc(S(=O)(=O)NCc2ccco2)cc1,i
CC(C)(C(=O)c1ccccc1)/[N+]([O-])=C/c1ccccc1,i
COc1ccc(NC(=S)NCCc2c[nH]c3ccc(OC)cc23)c(OC)c1,i
COc1ccc(NC(=O)NC(c2ccccc2)c2ccccc2)c(OC)c1,i
CCCN(C(=O)COc1ccc(Cl)cc1Cl)c1c(N)n(Cc2ccccc2)c(=O)[nH]c1=O,i
O=C1N(Cc2cccnc2)C[C@@H]2C[C@@H](c3cccc(Oc4ccccc4)c3)N3CCC[C@@]123,i
C=CCn1c(COc2ccccc2)nnc1SCC(=O)N/N=C/c1ccc(C)cc1,i
O=C(NNC(=O)C1CCCO1)c1ccc(Br)cc1 (centres undefined),i
# More structures follow.
SMILES,CHT PAM
CN1CCN(c2ccc(Cl)cc2NC(=O)c2ccc([N+](=O)[O-])cc2)CC1,i
COc1ccc(OCCN2CCN(C(=O)c3ccc(OC)c(OC)c3)CC2)cc1,i
Cc1occc1C(=O)N1CCN(c2ccccc2)CC1,i
CCOc1ccc(N2C(=O)c3cccnc3C2Nc2ccc(C)cc2)cc1 (centres undefined),i
O=C(Nc1nncs1)c1cc(-c2ccncc2)nc2ccc(Cl)cc12,i
CN(C)CCn1c2c(c(SCC(=O)Nc3ccc4c(c3)OCCO4)nc1=O)CCC2,i
Cc1noc(C)c1CSCC(=O)N(C)CC(=O)Nc1ccc(Cl)cc1,i
CC(C)NC(=O)CN1CCN(Cc2nc(-c3cccs3)no2)CC1,i
COc1ccc(CCNC(=O)CSc2nnc(-c3ccc(F)cc3)o2)cc1OC,i
Cc1cc(=O)n2nc(N3CCCC3C(=O)NCCCN3CC(C)CC(C)C3)sc2n1 (centres undefined),i
O=S(=O)(c1ccccc1)N1CCN=C1SCc1cccc(Cl)c1,i
CCCCN(C)CCCNC(=O)CS(=O)Cc1nc(-c2ccc(OC)c(OC)c2)oc1C (centres undefined),i
COc1ccc2o/c(=N/NC(=O)c3cccs3)c(C(N)=O)cc2c1,i
CCC(=O)Nc1ccc(/C(C)=N/NC(=O)c2c(Br)c(C)nn2C)cc1,i
O=C(Nn1c(C2CCCCC2)nc2ccccc2c1=O)c1cc(Cl)ccc1[N+](=O)[O-],i
Cc1ccc2[nH]c(=O)c(C(c3nnnn3C3CCCC3)N3CCCc4ccccc43)cc2c1 (centres undefined),i
O=C(Nc1nccs1)c1ccc(S(=O)(=O)NCc2cccs2)cc1,i
Cc1ccc(NC(=O)CS(=O)CC(=O)Nc2ccc(N3CCOCC3)cc2)cc1Cl (centres undefined),i
COC(=O)c1ccc(NC(=S)Nc2ccccc2)cc1,i
Cc1cccc(C)c1NC(=S)N(Cc1cccnc1)Cc1ccccc1Cl,i
CC1(C)C2CC=C(/C=N/NC(=O)C(N)=O)C1C2 (centres undefined),i
CC1CCCN(C(=O)C2CCN(c3ncnc4c3nc3n4CCCCC3)CC2)C1 (centres undefined),i
O=C(Cc1ccccc1)NC(NC(=O)Cc1ccccc1)c1cccc([N+](=O)[O-])c1,i
CC(=O)Nc1ccc(NC(=O)C(C)OC(=O)c2ccccc2C(=O)c2ccc(Cl)c([N+](=O)[O-])c2)cc1 (centres undefined),i
CCN(CCC(=O)Nc1cc(OC)cc(OC)c1)Cc1ccccc1,i
CCCNS(=O)(=O)c1ccc(OCC(=O)NCCCOC)cc1,i
CCN1CCCC1CNC(=O)C(=O)Nc1cccc(OC)c1 (centres undefined),i
CN(c1ccc(OCc2ccc([N+](=O)[O-])cc2)cc1)S(=O)(=O)c1ccccc1,i
Cc1ccc(C(=O)Nc2ccc3c(c2)OCO3)cc1NC(=O)c1ccco1,i

# Some of the entries so far, tab-delimited.
Structure	CHT PAM
Cc1noc(C)c1CSCC(=O)N(C)CC(=O)Nc1ccc(Cl)cc1	i
CCCNS(=O)(=O)c1ccc(OCC(=O)NCCCOC)cc1	i
Cc1cc(=O)n2nc(N3CCCC3C(=O)NCCCN3CC(C)CC(C)C3)sc2n1 (centres undefined)	i
O=C(Nc1nccs1)c1ccc(S(=O)(=O)NCc2cccs2)cc1	i
O=C(Nc1nncs1)c1cc(-c2ccncc2)nc2ccc(Cl)cc12	i

# This is a subset, and most or all hits are left out here.
